From PubChem BioAssay
HPGD block: inhibitors of human 15-hydroxyprostaglandin dehydrogenase (HPGD); P15428; purified HPGD, NADH fluorescence kinetic, PGE2 substrate; Potency, µM, for the others: at the highest dose activity change, negative = inhibition, hits mostly inhibitors; hit rate 4.3% among 150,000; AID 894; active = well fitted inhibition curve with a large enough effect (not every such curve was filed as active); inconclusive = small, poorly fitted or top-dose-only effect, or another doubt; inactive = no such curve, though single readings can be large or run the other way;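 note: top concentration of the series not given in the record; plate controls included wells without enzyme; inactives centre near -10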
Target sequence (P15428 whole entry, looked up): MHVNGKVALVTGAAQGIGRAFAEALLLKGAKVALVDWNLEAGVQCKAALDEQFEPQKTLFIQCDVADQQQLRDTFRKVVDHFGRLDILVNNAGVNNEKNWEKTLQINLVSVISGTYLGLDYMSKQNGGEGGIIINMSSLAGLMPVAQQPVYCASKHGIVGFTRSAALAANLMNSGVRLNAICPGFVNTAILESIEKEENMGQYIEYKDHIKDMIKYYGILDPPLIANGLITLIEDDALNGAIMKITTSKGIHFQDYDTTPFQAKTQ
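NADH formation kinetics: reaction with 30 uM PGE2 and 1 mM NAD+ (final), 20 nM enzyme, Tris-HCl pH 8 with Tween 20, after 15 min compound preincubation at room temperature. Fluorescence change, last versus first of five reads.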
Active calls of the source: *; ? = inconclusive. % is set by controls: 0 for no effect and ±100 for the full control effect; potency is the fitted concentration of half-maximal effect.

> N#Cc1c2n(c3c(=O)n(CC(=O)c4ccc(Br)cc4)cnc13)CCCC2
  HPGD block: -4%
> CCn1c(SCc2cccnc2)nc2c1c(=O)n(C)c(=O)n2C
  HPGD block: -4%
> O=C(CSc1nnc(-c2ccccc2)n1Cc1ccccc1)NC1CC1
  HPGD block: 1%
> COc1ccc2c(c1)CC/C(=C\Nc1ccc3c(c1)OCO3)C2=O
  HPGD block: -30%
> Cc1cc(C)nc(N/N=C/c2cccc3ccccc23)n1
  HPGD block: -5%
> COC(=O)C1=C(C(=O)OC)[C@@H]2N(C)c3ccccc3[C@@]23C[C@@H](C(=O)OC)N(C(=O)C2CCC2)C3=N1
  HPGD block: -2%
> CCN1CCN(C(c2cccs2)C(C)NC(=O)c2c(F)cccc2F)CC1 (centres undefined)
  HPGD block: -7%
> COc1ccc2oc(=O)c(C(=O)NCc3cccnc3)cc2c1
  HPGD block: ?
> COc1ccc(CNC(=O)CCOc2ccc(C(C)(C)C)cc2)cc1
  HPGD block: -3%
> CCCC1(C)SC(NC(C)=O)=NN1C(C)=O (centres undefined)
  HPGD block: -11%

> O=C(CSc1nc2ccccc2s1)Nc1ccc(N2CCOCC2)c(Cl)c1
  HPGD block: -3%
> CCOC(=O)C1=C(C)NC(=O)NC1c1ccsc1 (centres undefined)
  HPGD block: -5%
> O=C(C(Cl)Cl)N1CCN(Cc2ccccc2)CC1
  HPGD block: -21%
> CN1CCN(CCC(=O)Nc2cccc(F)c2)CC1
  HPGD block: -10%
> CCNc1nc(Oc2c(Cl)cccc2Cl)cc(C(F)(F)F)n1
  HPGD block: -27%
> CCCCCC(=O)NC(=S)NNC(=O)c1ccc([N+](=O)[O-])cc1
  HPGD block: -11%
> COc1ccc(NC(=O)CCCn2c(=O)c3sccc3n(Cc3ccc(C)cc3)c2=O)cc1
  HPGD block: -24%
> Cc1cc(-c2n[nH]c(=S)n2CC(C)C)cs1
  HPGD block: -15%
> COc1cccc(-n2cnc3scc(-c4cccs4)c3c2=O)c1
  HPGD block: -27%
> O=C(CSc1nnc(-c2ccco2)n1Cc1ccco1)N1CCOCC1
  HPGD block: -9%

> COc1cc(C(=O)CCN2CCC(c3ccccc3)C2)cc(OC)c1OC (centres undefined)
  HPGD block: -4%
> CC(C)Cc1nnc(NC(=O)CSc2nc(N)cc(=O)[nH]2)s1
  HPGD block: -25%
> CC1(C)Cc2nc(NCCN3CCOCC3)c(C#N)cc2CO1
  HPGD block: -27%
> Nc1nc(=S)[nH]c2c1C1(CCCCC1)Cc1ccccc1-2
  HPGD block: -10%
> O=C(c1ccco1)N1CCC[C@@]2(CCN(C(c3ccccc3)c3ccccc3)C2)C1
  HPGD block: -3%
> CC(C)C(=O)N1C2CCC1CC(O)(c1ccc(F)cc1)C2 (centres undefined)
  HPGD block: -8%
> CCc1nnc(NC(=O)CSc2nnc(-c3ccco3)n2CC)s1
  HPGD block: 4%
> O=C(O)c1cccc(C(=O)O)n1
  HPGD block: -14%
> CCn1c(SCC(=O)N2CCN(c3ccccc3F)CC2)nnc1-c1ccoc1C
  HPGD block: -17%
> Cc1cccc(-c2cc3nc(C)cc(NCCCn4ccnc4)n3n2)c1
  HPGD block: -26%

> COc1ccc(O)c(/C=N/c2sc(C)c(C)c2C#N)c1
  HPGD block: 25µM*
> COc1ccc(-c2ccc(-c3noc(-c4ccccc4F)n3)c(OC)n2)cc1
  HPGD block: ?
> O=C(CN1CCN(c2ccccc2F)CC1)Nc1ccc2c(c1)CCC2
  HPGD block: 0%
> CC[n+]1c(/C=C/c2ccc(N(C)C)cc2)ccc2ccccc21
  HPGD block: -25%
> Cc1nn(CCC(N)=O)c2nc(-c3cccs3)cc(C(F)(F)F)c12
  HPGD block: ?
> O=C(Nc1cccc(NC(=O)c2sc3ccccc3c2Cl)c1)c1ccco1
  HPGD block: ?
> COC(=O)[C@@]1(Cc2ccc(OC)cc2)[C@H]2c3cc(C(=O)N4CCCC4)n(CCc4ccc(O)c(O)c4)c3C[C@H]2CN1C(=O)c1ccccc1
  HPGD block: -17%
> COc1ccc(N2C(=O)CSC2c2ccc3c(c2)OCO3)cc1 (centres undefined)
  HPGD block: -2%
> O=C(CCNS(=O)(=O)c1cccc2nsnc12)NC1CCCc2ccccc21 (centres undefined)
  HPGD block: -7%
> Cc1ccc(NC(=O)Cn2nc(C)cc2C)cc1
  HPGD block: -8%

> CCOC(=O)C1=NNC(C(=O)c2ccc(C)cc2)C1c1ccc(C)cc1 (centres undefined)
  HPGD block: -14%
> Cn1c(-c2ccco2)nc2cc3ccccc3cc21
  HPGD block: ?
> COC(=O)C(CCSC)NC(=O)CNS(=O)(=O)c1ccc(F)cc1 (centres undefined)
  HPGD block: -9%
> CC(C)(C)c1cc(C(=O)N2CCN(c3ncccn3)CC2)ccn1
  HPGD block: -13%
> CC1(C)CC(=O)C2=C(C1)Nc1ccccc1N1C(=O)c3ccccc3C21 (centres undefined)
  HPGD block: -18%
> O=C(c1ccc(CS(=O)(=O)c2ccc(Br)cc2)o1)N1CCCC1
  HPGD block: -11%
> CCCNC(=O)CN(c1cccc(F)c1)S(C)(=O)=O
  HPGD block: -2%
> COC(=O)c1cc(-c2ccc(Br)cc2)n[nH]1
  HPGD block: -4%
> Cc1ccc(NC(=O)Nc2nnc(Cc3ccc([N+](=O)[O-])cc3)s2)cc1
  HPGD block: -7%
> Cc1ccc2c(c1)C(O)(CC(=O)c1ccc3c(c1)OCO3)C(=O)N2 (centres undefined)
  HPGD block: -9%

> O=C(NCc1cccc(F)c1)c1ccc(N2C(=O)Cn3c(cc4sccc43)C2=O)cc1
  HPGD block: -21%
> CCOC(=O)N1CCN(Cc2c(F)cccc2Cl)CC1
  HPGD block: 0%
> N#CC1(Nc2ccccc2)C(=O)Nc2ccccc21 (centres undefined)
  HPGD block: -2%
> Cc1ccc(C(C(=O)NC2CCCC2)N(C(=O)CCC(=O)Nc2cc(C)on2)c2ccccc2)cc1 (centres undefined)
  HPGD block: 5%
> Cc1ccc(C)c(NS(=O)(=O)c2ccc(OCC(=O)N3CCCC3)cc2)c1
  HPGD block: -3%
> C=C(C)C1CC=C(C)/C(=N/NC(=O)COc2ccc(C)cc2)C1 (centres undefined)
  HPGD block: 4%
> CCOC(=O)Nc1ccc(C)cc1Br
  HPGD block: -3%
> CC1=CS/C(=C(/C#N)C(=O)N2CCOCC2)N1c1ccccc1
  HPGD block: -17%
> O=C(CCc1nc(-c2cccs2)no1)NCc1ccc(F)cc1Cl
  HPGD block: -7%
> COc1ccccc1C(O)(C(=O)NN(C(=O)c1ccccc1)c1ccccc1C)c1cccs1 (centres undefined)
  HPGD block: -2%

> O=C(Cn1cc(C(=O)C2CC2)c2ccccc21)NCc1ccccc1
  HPGD block: 0%
> Fc1ccc(-c2nc(-c3cccs3)[nH]c2-c2ccc(F)cc2)cc1
  HPGD block: ?
> CC(=O)Nc1nonc1C(=O)N1CCC(C)CC1
  HPGD block: -4%
> C=CCOC(=O)C1=C(C)NC(=S)NC1/C=C/c1ccccc1 (centres undefined)
  HPGD block: -18%
> COC(=O)CCCC1=CC2=CC(=O)C(C)(OC(=O)c3cccs3)C(=O)C2=CN1C1CCCC1 (centres undefined)
  HPGD block: -4%
> COc1cc2[nH]c(=O)n(CCC(=O)N3CCN(c4cc(Cl)ccc4C)CC3)c(=O)c2cc1OC
  HPGD block: -7%
> CN(C)c1ccc(/C=C(\C#N)C(=O)Nc2nc3c(s2)CCN(Cc2ccccc2)C3)cc1
  HPGD block: 0%
> CCCn1c(SCC(=O)Nc2ccccc2Oc2ccccc2)n[nH]c1=O
  HPGD block: -6%
> CCOC(=O)Cc1csc(NC(=O)CSc2nnc(C(C)C)n2CC)n1
  HPGD block: -17%
> COc1ccc(Cn2c(-c3ccco3)nc3oc4cc(OC)ccc4c(=O)c3c2=O)cc1
  HPGD block: -14%

> COc1ccc(-c2cccc(-c3cc(=O)oc4ccc(C(C)(C)C)cc34)c2)cc1
  HPGD block: -9%
> COc1ccc([N+](=O)[O-])cc1N(CC(O)CN(CC(C)C)CC(C)C)S(=O)(=O)c1ccccc1 (centres undefined)
  HPGD block: -18%
> Cc1cc(C)nc(NC(=O)Cc2cccs2)n1
  HPGD block: -9%
> C=CCNc1oc(-c2ccc(OC)cc2)nc1C#N
  HPGD block: ?
> Cc1cccc(C)c1NC1=NC(=S)N(c2ccc(N(C)C)cc2)C1(C)C
  HPGD block: -8%
> O=C1c2cccnc2C(=O)N1C1CCCCC1
  HPGD block: -4%
> CN1[C@H](CC(=O)c2ccccc2)CCC[C@H]1C[C@H](O)c1ccccc1
  HPGD block: -7%
> Cc1ccc(-c2nc3ncccn3c2Nc2ccc3c(c2)OCCO3)o1
  HPGD block: -20%
> CCN(CC)S(=O)(=O)c1cnccc1N1CCN(c2cccc(Cl)c2)CC1
  HPGD block: -11%
> CC1CN(Cc2nc3c(c(=O)n(C)c(=O)n3C)n2CCN2CCOCC2)CC(C)O1 (centres undefined)
  HPGD block: -13%

Of the compounds above, these contain bromine:
> N#Cc1c2n(c3c(=O)n(CC(=O)c4ccc(Br)cc4)cnc13)CCCC2
  HPGD block: -4%
> O=C(c1ccc(CS(=O)(=O)c2ccc(Br)cc2)o1)N1CCCC1
  HPGD block: -11%
> COC(=O)c1cc(-c2ccc(Br)cc2)n[nH]1
  HPGD block: -4%
> CCOC(=O)Nc1ccc(C)cc1Br
  HPGD block: -3%

Continuation.
> O=C(CC(c1ccco1)C1CCCCC1=O)c1ccccc1 (centres undefined)
  HPGD block: -11%
> Cc1oc2cc(OC(=O)c3ccco3)ccc2c(=O)c1-c1nc2ccccc2n1C
  HPGD block: -25%
> CCOC(=O)c1cc(-c2ccccc2)sc1NC(=S)Nc1cccc(C)n1
  HPGD block: -4%
> Cc1ccc(N2C(=O)CSC2c2ccc3c(c2)OCO3)cc1 (centres undefined)
  HPGD block: -5%
> O=C(CNC(=O)c1ccco1)OCC(=O)c1cccc2ccccc12
  HPGD block: -17%
> Cc1ccc(S(=O)(=O)Cn2nnnc2C(c2ccccc2)N2CCN(c3ncccn3)CC2)cc1 (centres undefined)
  HPGD block: -7%
> CCCC(=O)NC(Nc1ccccc1OC)C(Cl)(Cl)Cl (centres undefined)
  HPGD block: -4%
> CC1=C(C(=O)OC(C)C)C(c2ccccn2)n2ncnc2N1 (centres undefined)
  HPGD block: -2%
> CCOC(=O)c1ccc(NC(=S)N2CCN(S(C)(=O)=O)CC2)cc1
  HPGD block: -2%
> CCOc1cccc(CNc2ccc(O)cc2)c1OCc1ccccc1Cl
  HPGD block: -24%

> CS(=O)(=O)N1CCN(C(=O)C2c3ccccc3Oc3ccccc32)CC1
  HPGD block: -6%
> O=C(CCN1CCc2ccccc2C1)Nc1ccc2c(c1)OCO2
  HPGD block: -5%
> Cn1ncc(Cl)c(Oc2ccccc2)c1=O
  HPGD block: -17%
> CC(C)(CO)NCC(=O)Nc1cc(C(F)(F)F)cc(NC(=O)CNC(C)(C)CO)c1Cl
  HPGD block: -2%
> C/C(=N\NC(=O)c1ccccc1C)c1ccc(NC(=O)c2cccs2)cc1
  HPGD block: -3%
> Cc1ccc(S(=O)(=O)N2CCC(C(=O)N[C@H](C(=O)NC3CCS(=O)(=O)C3)C(C)C)CC2)cc1 (some centres undefined)
  HPGD block: -1%
> COc1ccc(S(=O)(=O)N(C)CC(=O)N2CCC(C(N)=O)CC2)cc1Cl
  HPGD block: -4%
> Cc1sc2nc3n(c(=O)c2c1C)CCCS3
  HPGD block: -12%
> COc1ccc(-n2cnc3ccccc32)cc1
  HPGD block: -14%
> Cc1ccccc1C1=NC(c2ccc(F)cc2F)ON1 (centres undefined)
  HPGD block: -21%

> O=C(NCc1cccnc1)c1ccc(CS(=O)(=O)c2ccc(Br)cc2)o1
  HPGD block: -10%
> C=CCNC(=O)COc1ccc(Br)cc1Cl
  HPGD block: ?
> COC(=O)C(NC(=O)c1ccccc1Cl)(Nc1ncc(S(=O)(=O)c2ccc([N+](=O)[O-])cc2)s1)C(F)(F)F (centres undefined)
  HPGD block: -6%
> CCNc1nc(Oc2ccc(Cl)cc2Cl)cc(C(F)(F)F)n1
  HPGD block: ?
> O=C(c1cc2ccccc2oc1=O)N(Cc1ccco1)CC1CCCO1 (centres undefined)
  HPGD block: -6%
> CCCCOc1ccc(C(=O)N/N=C/c2ccc(OCCN3CCCCC3)c(OC)c2)cc1
  HPGD block: -12%
> COc1cccc(C(=O)Nc2ccc(-c3nc4ccccc4o3)c(O)c2)c1
  HPGD block: ?
> O=C1C(NS(=O)(=O)c2cccs2)=C(N2CCN(c3cccc(C(F)(F)F)c3)CC2)C(=O)c2ccccc21
  HPGD block: -25%
> CS/C(=C\[N+](=O)[O-])Nc1ccc(F)cc1
  HPGD block: -13%
> COc1ccc(NC(=O)C2CCN(C(=O)c3ccc(OC)cc3)CC2)cc1
  HPGD block: -10%

> Nc1ccc(-c2nnc(-c3ccc(-c4ccccc4)cc3)o2)cc1
  HPGD block: ?
> Cc1ccc(CSc2ccc(-c3ccc4c(c3)OCO4)nn2)cc1
  HPGD block: ?
> O=C(CSCc1ccc(Cl)cc1)NCC1CCCO1 (centres undefined)
  HPGD block: -22%
> Cn1c(=O)cc(OCCCC(=O)NC2CCCC2)c2ccccc21
  HPGD block: 14µM*
> COC(=O)c1ccccc1NC(=O)Cn1c(CCC(=O)O)ccc1-c1cccs1
  HPGD block: -7%
> COc1ccc(CCNC(=O)c2ccc(Cl)cc2Cl)cc1
  HPGD block: -8%
> Cc1cc(NC(=O)c2ccc3c(c2)OCO3)ccc1NC(=O)c1ccco1
  HPGD block: -13%
> COc1ccc(OC)c(C(=O)COC(=O)C2CC3CCCC(C2)C3=O)c1 (centres undefined)
  HPGD block: -24%
> CC1CCN(c2ccc(NC(=S)NC(=O)c3ccco3)cc2)CC1
  HPGD block: -26%
> Cc1ccc(N2C(=O)c3cccc4c(Oc5ccccc5[N+](=O)[O-])ccc(c34)C2=O)c(C)c1
  HPGD block: -8%
> Cc1cc(C)nc(NC(=O)c2cc([N+](=O)[O-])cc([N+](=O)[O-])c2)n1
  HPGD block: -3%
> O=C(Nc1cccc(Cl)c1)OCc1cnc(Cl)s1
  HPGD block: -5%

An excerpt; the hit share may differ from the screen's.
